# GALR2 ag – agonists of human galanin receptor 2 (GALR2) | 0.48% of 140,000 active | GALR2-expressing cells, agonist activation read-out | O43603 | activation, %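 (tested at 5 µM)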;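 active = above mean plus 3 SD of all compounds, about 5% in these data, not always enough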;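 also: 0% = vehicle buffer wells and 100% = reference agonist at full effect; tested in CHO reporter cells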
# Target sequence (O43603 whole entry, looked up): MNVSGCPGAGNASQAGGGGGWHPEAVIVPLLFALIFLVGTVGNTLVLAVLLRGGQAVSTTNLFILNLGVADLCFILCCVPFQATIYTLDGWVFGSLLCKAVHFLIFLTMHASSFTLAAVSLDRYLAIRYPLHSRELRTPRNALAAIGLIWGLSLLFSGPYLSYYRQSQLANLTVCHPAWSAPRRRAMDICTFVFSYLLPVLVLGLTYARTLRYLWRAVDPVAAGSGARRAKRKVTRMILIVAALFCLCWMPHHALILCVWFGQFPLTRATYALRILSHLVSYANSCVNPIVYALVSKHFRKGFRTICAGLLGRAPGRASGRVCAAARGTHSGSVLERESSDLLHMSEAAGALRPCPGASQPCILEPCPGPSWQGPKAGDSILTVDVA
# INS promoter inh – TRM-6 insulin promoter activity inhibition | TRM-6 cells (human fetal islet line), insulin promoter-eGFP reporter, imaging; reporter expression induced with tamoxifen | inhibition, % at 2 µM | 0.9% of 130,000 active | AID 1273;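 active = inhibition above the mean plus 3 SD, with well images judged a real hit on visual review, cut at about 60% in these data, passing the limit was not always enough; inconclusive = inhibition over the cutoff but images rejected on review; inactive = inhibition not above the cutoff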
# PKD1 inh – inhibitors of human PKD1 kinase; Q15139; PKD1 kinase fluorescence polarization assay; inhibition, %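 (about 10 µM by stock and volumes)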; 0.056% of 200,000 active;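 active = inhibition of 50% or more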;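 also: controls were vehicle for no effect and a reference inhibitor for full effect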
# HSV augment – increases HSV replication in cells. HSV replication augmentation in cells, fold increase. maximum fold increase. 0.005% of 220,000 active;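 active = peak rise of 1.5-fold or more in the series; inconclusive = self-fluorescent or not available for retest; tested in PC3 cells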;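 also: first round at 10 µM; read as green reporter fluorescence; hits show the peak of a series up to 25 µM; 1 = signal of infected wells without compound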
# RGS16-Gao HTS – RGS16-Galphao interaction regulator (human). 0.38% of 220,000 active. O15492+P09471. bead-based flow cytometry RGS16-Galphao binding, fluorescence; actives lie on both sides. AID 1441. binding response (% of control), % at 10 µM;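 active = below 25% or above 175%, edge rows of some plates excepted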;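 also: Galphao activated by GDP with aluminum fluoride before binding; 100% = wells without compound and 0% = beads without RGS; some results beyond the cut were filed as inactive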
# Target sequence (O15492 whole entry, looked up): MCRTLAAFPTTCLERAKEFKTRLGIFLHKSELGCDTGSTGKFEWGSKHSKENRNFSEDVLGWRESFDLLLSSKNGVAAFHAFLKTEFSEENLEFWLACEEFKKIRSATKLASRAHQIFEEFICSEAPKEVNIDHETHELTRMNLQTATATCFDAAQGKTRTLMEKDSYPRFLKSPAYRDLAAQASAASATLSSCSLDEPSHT
# Target sequence (P09471 whole entry, looked up): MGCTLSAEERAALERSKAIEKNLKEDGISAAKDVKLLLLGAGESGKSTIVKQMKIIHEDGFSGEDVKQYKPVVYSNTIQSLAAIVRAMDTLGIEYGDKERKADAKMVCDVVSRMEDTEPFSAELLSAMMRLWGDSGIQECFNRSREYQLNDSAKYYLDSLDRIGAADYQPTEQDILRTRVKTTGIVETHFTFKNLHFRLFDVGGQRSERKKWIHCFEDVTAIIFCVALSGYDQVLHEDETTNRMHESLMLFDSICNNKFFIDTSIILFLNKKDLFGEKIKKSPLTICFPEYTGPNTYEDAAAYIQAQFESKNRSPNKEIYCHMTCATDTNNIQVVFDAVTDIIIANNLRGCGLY
# INS promoter inh cell count – also measured in INS promoter inh; calls as there; normalized cell count, %; measured here: cell count, toxicity; reference of the scale not given here;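 cells exposed to compound for 48 h; stained nuclei by imaging scaled within each plate; lower means fewer cells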
# HSV augment primary fold – second read-out of HSV augment, no call of its own (marks repeat the call); fold increase; compound at 10 µM; measured here: primary screen fold increase 10 uM; tested in PC3 cells;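 GFP signal in the first replicate; 1 = infected wells without compound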
# Starred values were filed as active, the others as inactive; i = inactive; ? = inconclusive; / = not tested or not shown.
Molecule,HSV augment primary fold,INS promoter inh,INS promoter inh cell count,GALR2 ag,PKD1 inh,RGS16-Gao HTS,HSV augment
Clc1ccc2[nH]c3c(NCCN4CCOCC4)ncnc3c2c1,0.97,25,61,-0.4,1,100,i
CCCCCCC1CCC(C(=O)N2CCOCC2)CC1 (stereo unspecified),0.62,-25,146,/,-7,101,i
Fc1ccc(-c2nc(-c3cccs3)no2)cc1,1.1,/,/,/,/,100,i
COc1ccc(-c2nn3c(-c4ccccn4)nnc3s2)cc1OC,0.77,-106,58,0.8,-3,103,i
C1CN(CC23CC4CC(CC(C4)C2)C3)CCO1,1,-249,100,-1.7,1,104,i
CCCSc1ncccc1C(=O)O,1.2,/,/,/,/,101,i
O=C(OCC(=O)N1CCN(C(=O)c2ccco2)CC1)c1ccccc1C(=O)c1ccc(Cl)cc1,0.72,-15,122,-0.2,-12,91,i
Cc1cc(C)cc(NC(=O)Nc2ccc(-n3ccc(C(F)(F)F)n3)cc2)c1,0.8,/,/,/,/,93,i
COC(=O)c1c(NC(=O)CN2CCN(c3ccccc3Cl)CC2)sc(C)c1C,1.2,/,/,0.2,-1,106,i
COC(=O)[C@H](C)NC(=O)NC1CCN(Cc2ccccc2)CC1,0.7,-187,43,-2.2,-2,103,i
Cc1cc(C)cc(C(=O)NCC(=O)OCc2cc([N+](=O)[O-])cc3c2OCOC3)c1,1,43,70,-1.5,3,103,i
COc1ccc(N=C(N(C)C)P(=O)(N(C)C)N(C)C)cc1,1,42,80,-2.1,-5,i,i
CCOC(=O)Nc1ccc2c(c1)nc(CN1CCOCC1)n2C,0.87,-20,55,-1.5,3,96,i
O=C(NNC(=O)c1cnccc1C(F)(F)F)c1ccc(Cl)cc1,1.1,/,/,/,/,99,i
Cc1ccc(CN2C(=O)CCC2C(=O)NCCCN2CCC(C)CC2)cc1 (stereo unspecified),0.93,/,/,0.0,-12,103,i
CC(NC(=O)CSc1ncnc2nc[nH]c12)c1ccccc1 (stereo unspecified),0.79,-4,91,-1.0,1,110,i
Oc1ccccc1CNc1ncc(Br)cc1Br,0.99,3,136,0.1,-3,102,i
Cc1ccc([N+](=O)[O-])c2c1C(N1CCCC1)C(C)(C)O2 (stereo unspecified),0.97,/,/,/,9,99,i
O=C1CC(C(=O)NCc2ccccc2)C2(CCCC2)O1 (stereo unspecified),0.87,-42,64,-0.7,12,87,i
CC(C)(O)C(=O)NNC(=S)Nc1ccc(F)c(Cl)c1,0.95,35,61,/,1,100,i
Cc1ccc(S(=O)(=O)NCC(=O)OCC(=O)N2CCc3ccccc32)cc1,0.95,30,85,-1.3,9,604,i
CC1(C)CC(=O)C2=C(C1)N(CCN1CCOCC1)C1=C(C(=O)CC(C)(C)C1)C2c1cccc(Cl)c1,1.1,/,/,8.6,7,100,i
COCC(=O)NCCc1nc(-c2ccccc2)cs1,0.98,/,/,-1.6,3,106,i
O=c1[nH]c2ccccc2n1CCCSc1cnc2ccccc2n1,0.98,-13,74,0.1,1,103,i
O=C1NN(c2cccc(Br)c2)C(=O)/C1=C/c1ccc(-c2cc([N+](=O)[O-])ccc2O)o1,0.88,/,/,/,/,103,i
CC(C)(C)c1ccc(-c2nnc(SCCN3C(=O)c4ccccc4C3=O)o2)cc1,0.89,36,131,-1.6,-7,107,i
COc1ccc(C2=NCCNC(C(F)(F)F)=C2)cc1,1,/,/,/,-5,99,i
CCOC(=O)CSc1nnc(CNC(=O)Cc2ccccc2)n1-c1ccccc1OC,1.1,/,/,0.8,-3,95,i
O=C(O)C(=O)/C(=C\c1ccc([N+](=O)[O-])cc1)c1ccc2ccccc2n1,/,/,/,/,3,100,?
CCOC(=O)Cc1csc(NC(=O)c2ccoc2C)n1,0.98,-17,90,-1.3,0,110,i
O=C(Cc1ccc(Cl)cc1)Nc1ccc(NC(=O)c2cccs2)cc1,0.94,-13,76,/,-5,103,i
COc1ccc(OC(C)C(=O)N2CCC(C)CC2)cc1 (stereo unspecified),1.1,34,104,-2.6,0,96,i
COc1ccc(OC)c(-n2c(Cn3c(-c4ccccn4)nc4ccccc43)n[nH]c2=S)c1,0.99,/,/,/,-3,79,i
CN(C)S(=O)(=O)N1CCC(Oc2ccc(C(=O)NCC(C)(C)CO)cc2)CC1,1.1,/,/,/,3,118,i
Cc1nc2ccccc2c(=O)n1/N=C/c1ccc(O)cc1O,0.96,/,/,/,-3,99,i
O=c1[nH]c(CN2CCN(Cc3ccccc3)CC2)nc2sc3c(c12)CCC3,/,/,/,-0.5,-2,/,/
COc1ccc(C2NC(=O)NC(C)=C2C(=O)Nc2cc(C)ccc2C)cc1OC (stereo unspecified),1,12,113,0.1,2,121,i
O=C(O)c1ccc(C(=O)O)c(C(=O)c2ccccc2)c1,0.68,/,/,-1.7,-2,102,i
CCCCC(=O)Nc1cccc(NC(=O)c2cccc([N+](=O)[O-])c2)c1,0.93,/,/,/,9,98,i
CCCCNC(=O)c1cnc2n(c1=O)CCS2,0.95,-25,100,-2.6,-3,99,i
O=C(c1cn[nH]c1)c1cc(F)ccc1O,0.95,/,/,-1.7,-7,100,i
CC(C)(C)c1cc(NC(=O)c2ccco2)n(-c2ccccc2)n1,1,-26,89,/,-1,100,i
Nc1cccc(Oc2ccc([N+](=O)[O-])cc2)c1,0.9,-31,107,/,-9,103,i
COCCCNC(=O)c1c(N)n(-c2ccc3c(c2)OCO3)c2nc3ccccc3nc12,1.1,20,129,1.9,7,97,i
Cn1c(SCC(=O)Nc2cc([N+](=O)[O-])ccc2F)nnc1C(F)(F)F,0.97,34,152,-0.5,-3,114,i
COc1cc(/C=C(/C#N)c2nc(-c3cc4ccccc4oc3=O)cs2)cc([N+](=O)[O-])c1O,0.92,/,/,/,/,107,i
O=C(Cn1nnc(-c2ccccc2)n1)N1CCN(S(=O)(=O)c2ccc(Cl)cc2)CC1,1.1,-60,47,-2.1,1,101,i
O=C(NCc1ccncc1)c1cc2ccccc2nc1Cl,0.89,/,/,/,9,99,i
Cc1ccc(S(=O)(=O)N(CC(=O)N2CCC(C(N)=O)CC2)c2cccc(C(F)(F)F)c2)cc1,1,3,60,0.2,-2,97,i
CC(C)c1ccc(OCc2ccc(C(=O)NN3CCN(C)CC3)o2)cc1,1,/,/,/,-1,101,i
Cc1cccc(Nc2nnc(SCC(=O)N(C)C3CCS(=O)(=O)C3)s2)c1C (stereo unspecified),1,40,55,0.7,7,103,i
CC(=O)NCCn1c(SCc2ccc(C)cc2C)nc2ccccc2c1=O,1.1,/,/,0.3,4,99,i
CC(c1nc2ccccc2c(=O)[nH]1)N1CCOCC1 (stereo unspecified),1.1,-43,114,/,-6,102,i
Cc1sc2nc(CC(=O)NN)[nH]c(=O)c2c1C,0.96,/,/,/,/,101,i
CC(C)CC(OC(=O)c1nsc(Cl)c1Cl)C(=O)NCc1cccs1 (stereo unspecified),0.8,0,58,-1.6,-9,/,i
CC1=CSC2=NC(=O)/C(=C\c3cccn3-c3ccc([N+](=O)[O-])cc3)C(=N)N12,1,-27,86,1.6,-6,57,i
Cc1cc(C)c(NC(=O)/C(=C/c2ccccc2)c2ccccc2)c(C)c1,1.1,-22,41,-1.6,-12,77,i
S=c1[nH]nc(-c2ccccn2)n1/N=C/c1ccc(Cl)c(Cl)c1,0.92,/,/,/,/,91,i
O=C(O)C1C2CC2CN1C(=O)c1ccc(Cl)cc1 (stereo unspecified),1,-55,141,/,-5,102,i
CCc1nccn1S(=O)(=O)c1cc(Br)ccc1OC,0.95,-45,142,1.4,-3,101,i

# Continuation.
Molecule,HSV augment primary fold,INS promoter inh,INS promoter inh cell count,GALR2 ag,PKD1 inh,RGS16-Gao HTS,HSV augment
c1ccc(COc2ccc(OCCCNC3CCCC3)cc2)cc1,0.87,-71,98,-3.9,-6,102,i
COc1ccc(-n2nc(C(=O)Nc3nc4ccc(OC)cc4s3)c3ccccc3c2=O)cc1,0.98,/,/,-1.3,-9,97,i
O=C(Cn1nc(Cc2cccnc2)c2ccccc2c1=O)Nc1ccccc1F,0.95,/,/,/,/,99,i
N#CC1=C(N)C(C#N)(C#N)C2(C(=O)Nc3ccccc32)C2CCCC=C12 (stereo unspecified),0.88,0,127,-1.6,0,96,i
O=C(NC1(C(F)(F)F)C(=O)Nc2c1c(=O)[nH]c(=O)n2Cc1ccccc1)c1ccc(Cl)cc1Cl (stereo unspecified),1.1,-97,97,-1.9,-7,96,i
CCOC(=O)c1sc(/N=C/N(C)C)nc1C,0.99,21,155,0.1,-2,102,i
COc1ccc(NC(=S)Nc2cnc3ccccc3c2)c(OC)c1,0.95,42,124,/,5,96,i
N#Cc1cccc(C#N)c1Oc1ccc(S(=O)(=O)Nc2ccccc2)cc1,0.71,/,/,/,/,103,i
N#CCCCSc1nnc(Cc2ccc3c(c2)OCO3)o1,0.88,-356,67,-1.9,-3,109,i
Cc1cc(NC(=O)CSc2nnc3c4c(C)c(C)sc4ncn23)no1,0.74,/,/,-1.2,-11,103,i
O=C(NC(=S)N1CCN(c2ccc(F)cc2)CC1)c1cccs1,1,-73,118,/,-7,102,i
Cc1nn(Cc2ccc(Cl)cc2)c(C)c1NC(=O)C1CC=CCC1C(=O)O (stereo unspecified),0.99,18,212,0.7,-16,106,i
Cc1ccc2[nH]c(C)c(CCNC(=O)NC3CCCCC3)c2c1,0.91,-33,145,/,3,101,i
O=C(NCc1cccnc1)C1c2ccccc2C(=O)N1C1CCCCCCC1 (stereo unspecified),1,-156,102,-2.4,-8,97,i
Cc1cc(C(=O)O)c(CSc2ncn[nH]2)o1,1.1,/,/,-0.2,1,104,i
Cc1cc(C)nc(SCNC(=O)c2ccccc2)n1,1,-28,126,-2.0,-6,98,i
COc1ccc(C(=O)N(Cc2ccco2)C(C(=O)NC2CCCC2)c2ccc(O)cc2)cc1OC (stereo unspecified),1.1,18,106,0.0,9,103,i
COc1ccc(CN(CCCN2CCOCC2)C(=O)Nc2cccc(Cl)c2)cc1OC,0.97,/,/,-0.7,-10,103,i
O=C(Nc1ccc(NC(=O)C23CC4CC(CC(C4)C2)C3)cn1)c1ccco1,0.9,/,/,-0.5,3,98,i
O=CN1Cc2[nH]c3ccccc3c2N(c2ccc(Cl)cc2)C1=O,1,/,/,-0.5,-1,102,i
CN(CCOCCOc1ccc(Cl)cc1Br)Cc1ccccc1,0.95,8,118,/,3,100,i
Cc1noc(C)c1C(c1ccccc1)S(=O)(=O)c1ccccc1 (stereo unspecified),1.1,-15,119,-1.6,-7,105,i
O=c1[nH]cnc2c1oc1ccccc12,1,/,/,-1.9,-1,297,i
COC(=O)c1ccc(NC(=O)CN2CCN(S(=O)(=O)c3cc(Cl)ccc3OC)CC2)cc1,0.84,23,178,-0.8,11,100,i
COc1ccc(NC(=O)N2CCCCCC2)cc1,0.94,/,/,/,-5,101,i
N/C(Cc1cccc2ccccc12)=N\OC(=O)COc1ccccc1,/,-33,126,-1.0,-7,70,/
C=CS(=O)(=O)c1sc(Cl)c(N2CCOCC2)c1[N+](=O)[O-],0.96,/,/,/,-3,97,i
Cc1ccnc(NC(=O)c2ccccc2NC(=O)C(C)(C)C)c1,0.95,-69,26,0.5,1,98,i
Cc1sc2nc(C3CC3)nc(N3CCN(S(=O)(=O)c4ccc(F)cc4)CC3)c2c1C,0.88,-9,86,0.1,-10,96,i
Cn1c(=O)c2c(nc(N3CCOCC3)n2C)n(C)c1=O,0.91,0,128,-4.4,-17,102,i

# Another view of some results above.
O=CN1Cc2[nH]c3ccccc3c2N(c2ccc(Cl)cc2)C1=O
  HSV augment primary fold: 1	INS promoter inh: /	INS promoter inh cell count: /	GALR2 ag: -0.5	PKD1 inh: -1	RGS16-Gao HTS: 102	HSV augment: i
CN(CCOCCOc1ccc(Cl)cc1Br)Cc1ccccc1
  HSV augment primary fold: 0.95	INS promoter inh: 8	INS promoter inh cell count: 118	GALR2 ag: /	PKD1 inh: 3	RGS16-Gao HTS: 100	HSV augment: i
Cc1noc(C)c1C(c1ccccc1)S(=O)(=O)c1ccccc1 (stereo unspecified)
  HSV augment primary fold: 1.1	INS promoter inh: -15	INS promoter inh cell count: 119	GALR2 ag: -1.6	PKD1 inh: -7	RGS16-Gao HTS: 105	HSV augment: i
O=c1[nH]cnc2c1oc1ccccc12
  HSV augment primary fold: 1	INS promoter inh: /	INS promoter inh cell count: /	GALR2 ag: -1.9	PKD1 inh: -1	RGS16-Gao HTS: 297	HSV augment: i

# Screening results (PubChem)
